Screening results (PubChem)
CHT block: inhibits the human high affinity choline transporter. Q9GZV3. 0.86% of 310,000 active. B-score at 10 µM. CHT-expressing cells, membrane potential dye, choline response; active compounds read low. AID 488975;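 active = B-score over 3 SD under the library average, and starting fluorescence ratio not unusually high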;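 also: choline stimulus applied at its EC90 after an EC20 pre-addition; B-score computed on integrated fluorescence ratio after choline addition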
Target sequence (Q9GZV3 whole entry, looked up): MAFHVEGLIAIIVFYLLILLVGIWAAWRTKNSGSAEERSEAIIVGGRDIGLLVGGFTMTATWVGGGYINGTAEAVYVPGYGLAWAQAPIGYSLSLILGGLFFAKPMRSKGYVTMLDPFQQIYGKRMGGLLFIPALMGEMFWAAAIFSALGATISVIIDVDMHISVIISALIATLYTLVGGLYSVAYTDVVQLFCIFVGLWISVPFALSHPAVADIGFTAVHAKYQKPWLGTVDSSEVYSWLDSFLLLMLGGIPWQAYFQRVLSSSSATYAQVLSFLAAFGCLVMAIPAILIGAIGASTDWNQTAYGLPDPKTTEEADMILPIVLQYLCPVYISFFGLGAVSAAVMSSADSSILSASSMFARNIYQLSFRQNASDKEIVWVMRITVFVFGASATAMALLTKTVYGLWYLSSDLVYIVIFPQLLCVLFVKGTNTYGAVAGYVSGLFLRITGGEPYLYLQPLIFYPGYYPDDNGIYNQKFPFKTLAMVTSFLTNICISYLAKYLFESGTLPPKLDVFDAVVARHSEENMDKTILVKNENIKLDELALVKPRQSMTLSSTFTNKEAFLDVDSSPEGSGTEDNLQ
CHT allo act: human CHT allosteric activation; B-score at 10 µM; Q9GZV3; CHT-expressing cells, membrane potential dye, choline EC20; active compounds read high; LV-AA mutant CHT in HEK293 cells; 0.49% of 310,000 active; AID 488977;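 active = initial fluorescence not abnormally high and integrated response B-score, plate-corrected, over 3 SD above library mean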
Calls only; i = inactive. Not all compounds are listed, and most or all hits are left out here.

Under each structure: CHT block	CHT allo act
1) COCCOC(=O)C1=C(C)NC(=O)NC1c1c(F)cccc1Cl (stereo not given)
  i	i
2) Cc1nnc2sc(-c3cccc4ccccc34)nn12
  i	i
3) O=C(CN1C(=O)c2cccc3cccc1c23)Nc1ccccc1C(=O)NCc1ccco1
  i	i
4) CCC(OC(=O)c1cccs1)C(=O)NCc1ccco1 (stereo not given)
  i	i
5) CNC(=O)c1ccc(NC(=O)CN2c3cccc4cccc(c34)S2(=O)=O)cc1
  i	i
6) C/C(=N\NC(=O)C(=O)Nc1cccc(C(F)(F)F)c1)c1ccc(Cl)s1
  i	i
7) O=S1(=O)CCN2C(=N1)SC1=C2CCN(Cc2ccccc2)C1
  i	i
8) O=C(c1ccc2c(=O)n(CCc3ccccc3)c(=O)[nH]c2c1)N1CCN(c2ccc(F)cc2)CC1
  i	i
9) NNC(=O)c1cc2sccc2s1
  i	i
10) CCOC(=O)Cc1csc(NC(=O)COc2c(C)cccc2C)n1
  i	i
11) Cc1ccc(S(=O)(=O)N2CCC(C(=O)OCC(=O)N(CC(C)C)C3CCS(=O)(=O)C3)CC2)cc1C (stereo not given)
  i	i
12) OCCC1CN(Cc2cccn2-c2nccs2)CCN1CCc1ccccc1 (stereo not given)
  i	i
13) C=CCOc1ccc(C2C(C#N)=C(N)N(N(C)C)C3=C2C(=O)CCC3)cc1 (stereo not given)
  i	i
14) CCCC1=C([O-])C2N=CC=CC2=[N+](c2ccccn2)C1=O (stereo not given)
  i	i
15) O=C(CSc1nccc(=O)[nH]1)NN(c1ccccc1)c1ccccc1
  i	i
16) O=C(Nc1ccc2[nH]c(=O)[nH]c2c1)c1cccc([N+](=O)[O-])c1
  i	i
17) COc1ccc(C2CC(=O)CC(=O)C2n2cncn2)cc1 (stereo not given)
  i	i
18) O=C(CS(=O)(=O)c1c[nH]c2ccccc12)N1CCCCC1
  i	i
19) CCNc1nc(NCc2ccccc2)nc(Oc2ccc(=O)[nH]n2)n1
  i	i
20) O=C1CCN(CCc2ccccc2)CCN1[C@H](CSc1ccc(Br)cc1)Cc1ccccc1
  i	i
21) O=C(NCc1cccnc1)[C@@H]1CC=C[C@@H]2CCN(Cc3ccccc3)C(=O)[C@@H]21
  i	i
22) CCCN1CCC(=O)N([C@H](CSc2ccc(Br)cc2)c2ccccc2)CC1
  i	i
23) CCOC(=O)Cc1nnc(NC(=O)C23CC4CC(CC(C4)C2)C3)s1
  i	i
24) Cc1cccc(C)c1NC(=O)c1ccc(-n2cnnn2)cc1
  i	i
25) Cc1cc(C)nc(N2C(=O)CC(C(C)c3ccccc3)C2=O)n1 (stereo not given)
  i	i
26) COc1ccc(-c2ccc(/C=C3/C(=N)N4C=CSC4=NC3=O)o2)c([N+](=O)[O-])c1
  i	i
27) CC(C)(C)C(=O)NCC12C=CC(O1)C1C(=O)N(c3ccccc3)C(=O)C12 (stereo not given)
  i	i
28) O=C(Nc1c(-c2ccccc2)nc2ncccn12)c1cc2ccccc2oc1=O
  i	i
29) COc1ccc(-c2nc(CN3CCC(C(=O)N4CCOCC4)CC3)c(C)o2)cc1C
  i	i
30) CCCC(=O)N1CCN(c2ccc(NC(=O)c3cc4ccccc4o3)cc2)CC1
  i	i
31) Cc1cc(C)c(C(=O)/C=C/c2cccs2)c(=O)[nH]1
  i	i
32) C=CCn1cc([N+](=O)[O-])nc1C
  i	i
33) COCCNc1nc2ccccc2n1CC(=O)c1ccc(OC)c(OC)c1
  i	i
34) COc1ccc(CN(C)CC(=O)Nc2cc3oc4ccccc4c3cc2OC)c(OC)c1
  i	i
35) O=C(NC1CCCC1)C(c1ccccc1F)N(C(=O)c1csnn1)C1CC1 (stereo not given)
  i	i
36) O=C1c2ccccc2C(=O)N1c1cccc2cccnc12
  i	i
37) COC(=O)CN(C)C(=O)CC1C(=O)NCCN1CC(C)(C)C (stereo not given)
  i	i
38) Cc1ccc(NC(=O)C(C)N2C(=O)c3ccccc3C2=O)c(C)c1 (stereo not given)
  i	i
39) CC(C)(C)NC(=O)CN(CC1CCCO1)C(=O)CNS(=O)(=O)c1ccc(F)cc1 (stereo not given)
  i	i
40) O=C(/C=C/c1ccccc1)NNC(=O)c1cccnc1
  i	i
41) CCCC(=O)Nc1sc(-c2ccccc2)c(-c2ccccc2)c1C(=O)O
  i	i
42) CCn1nc(C)c(/C=N/NC(=S)Nc2ccc(Cl)cc2Cl)c1C
  i	i
43) COc1ccccc1N/C(N)=N/c1nc(CSc2nc3ccccc3s2)cc(=O)[nH]1
  i	i
44) COc1ccc(CN(N=O)C2CC(=O)N(c3ccc(OC)cc3)C2=O)cc1 (stereo not given)
  i	i
45) COCCn1c(SCC(=O)Nc2sc(C)c(C)c2C#N)nnc1C(C)C
  i	i

Three entries from above in a different format:
31. Cc1cc(C)c(C(=O)/C=C/c2cccs2)c(=O)[nH]1
  CHT block = i; CHT allo act = i

32. C=CCn1cc([N+](=O)[O-])nc1C
  CHT block = i; CHT allo act = i

33. COCCNc1nc2ccccc2n1CC(=O)c1ccc(OC)c(OC)c1
  CHT block = i; CHT allo act = i

(cont.)
Under each structure: CHT block	CHT allo act
46) Cc1ccc(S(=O)(=O)N2CCN(C(=O)c3ccco3)CC2)cc1
  i	i
47) CCCS(=O)(=O)c1cscc1NC(=O)c1c(-c2c(F)cccc2Cl)noc1C
  i	i
48) CC(OC(=O)c1nsc(Cl)c1Cl)C(=O)NCCc1ccccc1 (stereo not given)
  i	i
49) CCOC(=O)/C(C#N)=C1/C=Cc2ccccc2N1CC
  i	i
50) CCOc1ccc2nc(SC(C)C(N)=O)[nH]c2c1 (stereo not given)
  i	i
51) Cc1onc(-c2ccccc2)c1C1=N/C(=C\c2ccccc2F)C(=O)O1
  i	i
52) COc1ccc(S(=O)(=O)N2CCN(c3ccccn3)CC2)c(OC)c1
  i	i
53) CC(=O)Nc1ccc(S(=O)(=O)N2CCSC2c2ccc(C)cc2)cc1 (stereo not given)
  i	i
54) CCn1c2ccccc2c2cc(NC(=O)C(=O)NCC3CCCO3)ccc21 (stereo not given)
  i	i
55) CC(CCc1ccc(O)cc1)N(C)CCc1ccccc1 (stereo not given)
  i	i
56) COc1cccc(C(=O)O/N=C(\N)c2ccccn2)c1OC
  i	i
57) Cc1cc(NC2CCCCC2)n2c(n1)nc1ccccc12
  i	i
58) O=C(Nc1nc(-c2ccccc2)cs1)C1CCCO1 (stereo not given)
  i	i
59) CC(C)(C)n1nc2c(c1NC(=O)c1cc3ccccc3o1)CSC2
  i	i
60) CCOC(=O)c1noc(C)c1C(=O)Nc1nccs1
  i	i
61) Cc1onc(-c2ccccc2)c1C(=O)OCC(=O)c1ccccc1
  i	i
62) COc1ccc(NC(=O)C(=O)NNC(=O)COc2ccc(OC)cc2)cc1
  i	i
63) Cc1cc(NS(=O)(=O)c2ccc(C3CCCCC3)cc2)no1
  i	i
64) Cc1cccc(OCCn2c(=O)oc3ccc(C)cc32)c1
  i	i
65) CCn1c(CNC(=O)c2ccco2)nnc1SCC(=O)c1ccc(OC)cc1
  i	i
66) COc1ccc(OC)c(S(=O)(=O)NC2CC2)c1
  i	i
67) CCCn1c(N)c(Br)c(=O)[nH]c1=O
  i	i
68) COc1ccc2ccccc2c1CN1CCN(C)CC1
  i	i
69) CC(C)(C)NC(=O)COC(=O)c1cc(Br)ccc1Cl
  i	i
70) Cc1cc(C)cc(NC(=O)CN2C(=O)c3ccccc3C2=O)c1
  i	i
71) O=C(C1=C[C@@H](c2ccc(Br)cc2)C[C@@H](OCc2ccc(CO)cc2)O1)N1CCOCC1
  i	i
72) O=C(c1ccc2ccccc2n1)N1CCN(c2ccccc2)CC1
  i	i
73) Cc1ccc(NC(=O)Cn2ncc3ccccc32)c(Cl)c1
  i	i
74) CC1(c2nnc(-c3cccc(Cl)c3)o2)CC(c2ccc(F)cc2)=NO1 (stereo not given)
  i	i
75) CCN(CC)S(=O)(=O)c1ccc(N/N=C(\C)c2cccnc2)nc1
  i	i
76) Cc1c(Nc2ncnc3c2cnn3-c2ccccc2)c(=O)n(-c2ccccc2)n1C
  i	i
77) O=C(Nc1nnc(C2=COCCO2)o1)c1ccc(Cl)cc1
  i	i
78) COCCCNC(=O)/C(C#N)=C/c1c(N2CCN(c3ccccc3)CC2)nc2c(C)cccn2c1=O
  i	i
79) Cc1ccc(-c2nnn(CC(=O)N(CCO)C(C(=O)NC(C)(C)C)c3ccncc3)n2)cc1 (stereo not given)
  i	i
80) COC/C=C/C1=CC2=CC(=O)C(C)(OC(=O)c3cnc4ccccc4n3)C(=O)C2=CN1CC(C)C (stereo not given)
  i	i
81) Cc1nc(C)c(C(=O)NNS(=O)(=O)c2ccc([N+](=O)[O-])cc2)s1
  i	i
82) Cc1ccn(C(CC(=O)c2ccc(Br)cc2)C(=O)O)n1 (stereo not given)
  i	i
83) C=CCNC(=O)C1CC(=O)N(c2ccc(OCc3ccc(F)cc3)cc2)C1 (stereo not given)
  i	i
84) Cc1ccc2[nH]c(CNC(=O)c3ccc(F)cc3)cc2c1
  i	i
85) CCN(CC)CCN(C(=O)c1cc2c(ccc3ccccc32)oc1=O)c1nc2cc3c(cc2s1)OCCO3
  i	i
86) O=C(CSC(=S)N1CCCC1)NCCc1ccccc1
  i	i
87) c1ccc(CN2CCC(N=C3NN=C(c4ccc5c(c4)OCCO5)CS3)CC2)cc1
  i	i
88) COc1ccc(NC(=O)NNC(=O)c2ccc(-c3ccccc3)cc2)c(OC)c1
  i	i
89) Cc1ccc(NNC(=O)c2cc(C(C)(C)C)nn2Cc2ccccc2)cc1
  i	i
90) CC(=O)Nc1ccc(S(=O)(=O)Nc2cc3c(cc2C(C)=O)OCO3)cc1
  i	i
91) Cc1ccccc1-c1cc2nc(C)c(C)c(=O)n2[nH]1
  i	i
92) Cc1ccc(NC(=O)C(=O)NCCN2CCN(S(=O)(=O)c3ccccc3)CC2)cc1C
  i	i
93) O=C(CCl)N1c2ccccc2OCC1c1ccccc1 (stereo not given)
  i	i
94) COCCn1c(=S)[nH]c2cc(OC)c(OC)cc2c1=O
  i	i
95) COc1ccccc1C(=O)NC(C)c1ccccc1 (stereo not given)
  i	i
96) Cc1cc(OC(=O)c2cccs2)ccc1C(C)C
  i	i
97) CCC(C(=O)Nc1ccc2c(c1)OCCO2)n1nnc2ccccc2c1=O (stereo not given)
  i	i
98) Cc1ccccc1-n1c(C)cc(/C=N/NC(=O)c2ccncc2)c1C
  i	i
99) O=C(CN1CCOCC1)Nc1c2c(nc3ccccc13)N(Cc1ccccc1)CC2
  i	i
100) CCOC(=O)N1CCC(NC(=O)C2=C(C)C(=O)OC23CCC(C)CC3)CC1 (stereo not given)
  i	i
101) CCc1c(C)nc(SCC(=O)N2C(C)CCCC2C)[nH]c1=O (stereo not given)
  i	i
102) Cc1ccc(C(=O)N2CCCC2)cc1S(=O)(=O)N1CCOCC1
  i	i
103) CCC(C(=O)Nc1c2c(nn1C(C)(C)C)CS(=O)(=O)C2)c1ccccc1 (stereo not given)
  i	i
104) O=C(NCc1ccco1)c1cc(-c2cccnc2)nc2ccc(Cl)cc12
  i	i
105) COc1ccc(CCC(=O)Nc2ccccc2C(F)(F)F)cc1
  i	i

Entries of single compounds as entered above. Values in the order: CHT block, CHT allo act
Entry for `Cc1ccc(NC(=O)C(C)N2C(=O)c3ccccc3C2=O)c(C)c1` (stereo not given) : i, i
Entry for `Cc1ccc(S(=O)(=O)N2CCN(C(=O)c3ccco3)CC2)cc1` : i, i
Entry for `O=C(CCl)N1c2ccccc2OCC1c1ccccc1` (stereo not given) : i, i

Further records follow:
Under each structure: CHT block	CHT allo act
106) CCc1c(C(=O)c2ccc(Cl)cc2)oc2c(C)c3oc(=O)cc(C)c3cc12
  i	i
107) COc1ccccc1-c1nc(SCc2ccccn2)n[nH]1
  i	i
108) CS(=O)(=O)NCCOc1ccc(S(=O)(=O)N2CCCc3ccccc32)cc1
  i	i
109) NC(=O)C1CCCN(C(=O)NC2CCCCC2)C1 (stereo not given)
  i	i
110) O=C(CSc1cccc2cccnc12)Nc1cccc(S(=O)(=O)N2CCOCC2)c1
  i	i
111) NC(=O)CSc1nc2c(sc3ccccc32)c(=O)n1CCCN1CCOCC1
  i	i
112) Cc1ccc(CSc2nc3[nH]ncc3c(=O)[nH]2)cc1
  i	i
113) COc1ccc(N2C(=S)NC(C)(C)CC2(C)c2ccc(OC(C)=O)cc2OC(C)=O)cc1 (stereo not given)
  i	i
114) Cc1cc(C)c2cc(C(=O)N3CCC(C(=O)c4ccc(F)cc4)CC3)[nH]c2c1
  i	i
115) CC(=O)NC1(C2CCCCC2=O)CCCCC1 (stereo not given)
  i	i
116) CCN(Cc1ccccc1)Cc1cccc([N+](=O)[O-])c1
  i	i
117) Cc1ccc(C(=O)N/C(=C\c2ccco2)C(=O)NCCCN2CCOCC2)cc1C
  i	i
118) CCNc1ccc(C(=O)NN=C2CCCC2)cc1[N+](=O)[O-]
  i	i
119) CC(C)(C)C1(C)OC(C(=O)NC2CCCCC2)C(C(=O)NC2CCCCC2)O1 (stereo not given)
  i	i
120) O=C(CN(C(=O)CCC(=O)Nc1ccccn1)c1cccc(F)c1)NCc1ccc(F)cc1
  i	i
121) CC(O)C1C(=O)OC2(C)CC(C)(C)NC(=S)N12 (stereo not given)
  i	i
122) CCCCc1cc(=O)oc2cc(OCC(=O)N3CCC(C(N)=O)CC3)ccc12
  i	i
123) CC(=O)CSc1nc(-c2ccccc2)c(-c2ccccc2)o1
  i	i
124) Cc1ncc([N+](=O)[O-])n1CC(=O)N/N=C/c1ccc(F)cc1
  i	i
125) CCOc1ccc(NC(=O)c2ccc(Br)o2)c([N+](=O)[O-])c1
  i	i
126) Cc1cc(C)c(NC(=O)CN2C(=O)NC(Cc3ccccc3)C2=O)c(C)c1 (stereo not given)
  i	i
127) COc1ccc(-c2cn(-c3ccccc3)nc2CO)cc1
  i	i
128) O=C(N/N=C/c1cn(-c2ccccc2)nc1-c1ccc(F)cc1)c1ccc(Br)o1
  i	i
